Sfp inh – inhibitors of Bacillus subtilis Sfp phosphopantetheinyl transferase. Q9F4F7. Biochemical Sfp PPTase activity, qHTS. Potency, µM, without a hit: max response, negative = inhibition, hits mostly inhibitors. actives 3.5% (n = 310,000). AID 1490; active = well fitted inhibition curve with a large enough effect; inconclusive = small, poorly fitted or top-dose-only effect, or another doubt; inactive = no such curve, though single readings can be large or run the other way;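 also: the enzyme is Sfp with the accession as filed and its product quenches rhodamine fluorescence; potency is read from the fitted curve at half-maximal effect; 0% = enzyme reaction without inhibitor and -100% = no enzyme wells; top concentration of the series not given in the record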
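Compounds were incubated with enzyme (final 15 nM) for 15 min at room temperature before substrate addition started the reaction. Fluorescence at 525 nm excitation, 598 nm emission was recorded immediately and after 30 minutes.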
D2 potentiator – positive allosteric modulators of human D2 dopamine receptor; P14416; DiscoveRx D2 beta-arrestin cells, luminescence, 90 min; 100% = 57 uM dopamine signal; potentiation, % (test concentration not listed); actives 0.23% (n = 360,000); AID 624464; active = potentiation of 50% or more; inconclusive = 30% to 50%; inactive = 30% or less;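 also: compound concentration not given in the record; tested on top of an EC20 dose of dopamine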
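PathHunter D2 cells, attached overnight at 37 deg C, received compound in DMSO plus dopamine at EC20 (50 nM final) for 90 min at 37 deg C. Beta-arrestin recruitment was read as luminescence after 1 h with detection reagent at ambient temperature.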
ClpP mod – qHTS Assay for Activators of ClpP; Potency, µM (highest dose often 57.5 µM), for inactives: at the highest dose activity change, negative = active; purified B. subtilis ClpP, FRET peptide cleavage, 20 min; actives 1.9% (n = 340,000); AID 651965, 2013; active = well fitted falling curve with a large enough effect; inconclusive = small, poorly fitted or top-dose-only effect; inactive = no such curve, though single readings can be large or run the other way; also: potency is read from the fitted curve at half-maximal effect; the source files actives as falling curves though it sought activators and does not explain the sign; nearly all actives have a fitted effect of over 65% in size; many hits overshoot -100%
Target sequence (P80244 whole entry, looked up): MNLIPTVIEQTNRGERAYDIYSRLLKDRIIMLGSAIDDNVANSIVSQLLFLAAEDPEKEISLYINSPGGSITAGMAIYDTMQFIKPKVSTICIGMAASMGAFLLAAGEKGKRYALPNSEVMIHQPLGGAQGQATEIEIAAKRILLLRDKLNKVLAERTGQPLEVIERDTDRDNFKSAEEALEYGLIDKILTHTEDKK
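Purified B. subtilis ClpP, 10 microg/mL final in Tris/HCl pH8 with KCl, BSA, glycerol and Tween-20, cleaved an Abz/nitrotyrosine-quenched decapeptide. Fluorescence (ex 320, em 430) was read at 0 and 20 min at room temperature. Delta was normalized to 5.8 microM ADEP and DMSO/no-enzyme controls.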
gsp ag – agonists of gsp mutant (McCune-Albright syndrome); gsp mutant cells, cAMP HTRF, 30 min; control for the full effect not named in the record; Potency, µM (series often up to 76.9 µM), inactives show at the highest dose activation (cAMP increase), hits mostly activators; actives 0.13% (n = 340,000); AID 624287; active = well fitted activation curve with a large enough effect; inconclusive = small, poorly fitted or top-dose-only effect, or another doubt; inactive = no such curve, though single readings can be large or run the other way; cell line not stated here;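 also: phosphodiesterase inhibitor Ro 20-1724 added with compounds to block cAMP breakdown; potency is read from the fitted curve at half-maximal effect; nearly all actives have a fitted effect of over 60% in size; about a fifth of the inactives were tested at one dose only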
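Cells in DMEM/10% FBS with G418 were pretreated with compounds in DMSO plus […] (300 uM stock) for 30 min at 37C. cAMP was measured by HTRF (cAMP-d2 plus anti-cAMP antibody-K) after 30 min at room temperature.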
gsp antag – antagonizes gsp, the McCune-Albright syndrome mutation | gsp-mutant cells, cAMP HTRF, 30 min; control for the full effect not named in the record | Potency, µM (highest dose often 76.9 µM), without a hit: at the highest dose activity change, negative = inhibition, usual class: inhibitors | actives 0.4% (n = 340,000); active = falling curve of any shape with a large fitted effect; inconclusive = falling curve, mostly with a smaller effect; inactive = flat or rising curve; cell line not stated here;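 also: intracellular cAMP measured with PDE inhibitor Ro 20-1724 present during compound exposure; potency is read from the fitted curve at half-maximal effect; % is scaled to controls: 0 for no effect and ±100 for the full control effect; nearly all actives have a fitted effect of over 65% in size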
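Cells in G418 medium, seeded 16-24 h, 37C; buffer exchange to DPBS + 1 mM CaCl2, 0.5 mM MgCl2, 0.05% BSA; cpds in DMSO + […] (300 uM stock), 30 min 37C; HTRF cAMP detection.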
TRPV1 PAM – enhances activation of the human vanilloid receptor TRPV1. Q8NER1. TRPV1-expressing cells, Fluo-8 calcium influx, capsaicin EC20 potentiation; host cell line not named in the record; control for the full effect not named in the record. potentiation, % at 8.33 µM. actives 0.02% (n = 320,000); active means potentiation above 80%; inconclusive means 30% to 80%; inactive means below 30%; also: 0% is about no effect
Target sequence (Q8NER1 whole entry, looked up): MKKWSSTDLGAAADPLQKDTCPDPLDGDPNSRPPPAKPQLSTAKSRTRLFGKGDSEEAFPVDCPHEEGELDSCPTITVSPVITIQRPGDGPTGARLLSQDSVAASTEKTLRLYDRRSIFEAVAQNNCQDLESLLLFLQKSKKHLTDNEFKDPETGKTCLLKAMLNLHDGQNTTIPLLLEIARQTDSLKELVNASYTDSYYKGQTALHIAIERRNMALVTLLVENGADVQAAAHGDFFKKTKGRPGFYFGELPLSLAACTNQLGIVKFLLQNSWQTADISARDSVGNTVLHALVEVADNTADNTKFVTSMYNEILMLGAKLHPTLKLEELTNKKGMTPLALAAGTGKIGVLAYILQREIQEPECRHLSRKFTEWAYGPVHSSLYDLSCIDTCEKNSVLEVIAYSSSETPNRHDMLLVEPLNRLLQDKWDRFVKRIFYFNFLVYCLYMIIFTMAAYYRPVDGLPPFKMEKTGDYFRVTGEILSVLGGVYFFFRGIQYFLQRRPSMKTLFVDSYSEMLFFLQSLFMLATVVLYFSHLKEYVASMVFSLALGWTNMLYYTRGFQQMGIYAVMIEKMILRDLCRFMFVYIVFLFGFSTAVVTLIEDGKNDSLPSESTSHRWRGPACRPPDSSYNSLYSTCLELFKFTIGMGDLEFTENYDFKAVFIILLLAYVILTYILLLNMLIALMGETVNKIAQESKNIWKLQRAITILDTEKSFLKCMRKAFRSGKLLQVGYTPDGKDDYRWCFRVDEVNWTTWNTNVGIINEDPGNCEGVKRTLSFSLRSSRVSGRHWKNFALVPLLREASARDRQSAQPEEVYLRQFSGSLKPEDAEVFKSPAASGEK
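Cells expressing TRPV1 were dye-loaded with Fluo-8 and read kinetically: 10 s baseline, 3 min after compound (agonist portion), then 2 min after EC20 capsaicin (allosteric enhancer portion). Calcium-bound dye fluorescence at 480/520 nm.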
Menin-MLL FL inh – displaces fluorescein MLL peptide from human menin; Fluorescence polarization, fluorescein-MLL peptide displacement from menin; FP activity change, % at 61.4 µM; 290,000 tested, under 10 active; AID 1766; inconclusive = falling polarisation curve, or a change in total fluorescence; inactive = total fluorescence flat and polarisation flat or rising; no compound was filed as active; the % refers to the polarisation; negative = inhibition;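 also: % of control where 0% means no effect; inhibitors lower the polarisation; unlabelled MLL peptide was the positive control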
Numbers without * were called inactive; ? = inconclusive; . = no result given; & = joins results of further samples; [ ] = remark or other dose.

| SMILES | Sfp inh | D2 potentiator | ClpP mod | gsp ag | gsp antag | TRPV1 PAM | Menin-MLL FL inh |
| --- | --- | --- | --- | --- | --- | --- | --- |
| Cc1[nH]c2ccccc2c1/C=N/NC(=O)c1cc(-c2cccs2)[nH]n1 | -6% | -14 | -8.9% | 14% | ? | 30 | 6.2 |
| COc1ccc(-c2nnco2)cc1OC | 11% | -2 | ? | -25% | 9% | 0 | 3.1 |
| O=C(NCCc1ccccc1)c1ccccc1C(=O)NCCc1ccccc1 | . | -1 | -0.1% | -25% | 8% | . | . |
| CC(C)(C)c1ccc(C(=O)NCC(=O)OCC(=O)NC(=O)NC2CCCC2)cc1 | . | -12 | 3.6% | 6% | -4% | 2 | . |
| CC(=O)c1cc(C#N)c(NCc2cc(-c3ccccc3)no2)nc1C | -4% | -8 | 0.9% | -1% | 4% | -13 | 2.8 |
| COc1ccccc1NC(=O)/C=C1\NC(=O)CS1 | -12% | -1 | 1.6% | 3%[15.4 µM] | -27% | 7 | -0.4 |
| CS(=O)(=O)N(CC(=O)Nc1cccnc1)c1ccc2c(c1)OCCO2 | -7% | -16 | -0.4% | 15% | 1% | 2 | 3.5 |
| Cc1cc(/C=N/NC(=O)c2ccccn2)c(C)n1-c1cccc([N+](=O)[O-])c1 | ? | -5 | . | 11%[15.4 µM] | 18% | -16 | 0.6 |
| COc1cccc(/C(O)=C2\C(=O)C(=O)N(c3ccccn3)C2c2ccccc2OC)c1 (stereo not given) | 5% | -16 | -3.6% | ? | ? | 0 | -2.1 |
| COc1ccc(CCNC(=O)CCCCCNC(=O)N2CCn3c2nc2ccccc23)cc1OC | 5% | -7 | -0.7% | -27% | 0% | 2 | . |
| O=C(OCC(=O)N1CCCCCC1)c1ccc(Cl)nc1 | . | -3 | 1.5% | ? | 3% | . | . |
| Cc1ccccc1CSCC(=O)c1c(N)n(C)c(=O)n(C)c1=O | 16% | -5 | 1.0% | ? | 3% | . | 3.7 |
| Cc1ccc(S(=O)(=O)N2CCN(C(=O)COC(=O)/C=C/c3ccc(Cl)cc3)CC2)c(C)c1 | . | 4 | -3.0% | ? | 1% | . | . |
| COc1cc2ccccc2cc1C(=O)Nc1nnc(-c2ccncc2)o1 | 2% | -8 | -5.3% | -64%[inhibitor] | -6% | 0 | -6.6 |
| CCOC(=O)c1ccc(N2CSC3=C(C#N)C(c4ccc(OC)cc4OC)CC(=O)N3C2)cc1 (stereo not given) | 20µM* | -2 | -6.4% | -41%[inhibitor] | -7% | 6 | 2.4 |
| COc1cccc(C=N[C@@H](CO)[C@@H](O)c2ccc([N+](=O)[O-])cc2)c1O | 3% | -9 | -0.7% | 1% | -9% | 12 | 2.9 |
| Cc1cc(Br)ccc1SCC(=O)OCC(=O)NC1CCCC1 | 7% | -4 | 0.5% | -23% | -22% | -12 | 1.8 |
| CCC(=O)Nc1ccc(S(=O)(=O)c2ccc(NC(=O)CC)cc2)cc1 | -6% | -3 | -19% | -60%[inhibitor] | 8% | 2 | -1.7 |
| c1ccc(CSc2nnc(Cc3ccccn3)o2)cc1 | -11% | 8 | 3.2% | ? | 11% | -6 | 1.0 |
| CCOC(=O)[C@H]1[C@H]2COc3ccc(C)cc3[C@@H]2N2C(=O)c3cc(Br)ccc3NC(=O)[C@@]12C | . | -3 | -1.9% | . | -15% | . | . |

Next part:
| SMILES | Sfp inh | D2 potentiator | ClpP mod | gsp ag | gsp antag | TRPV1 PAM | Menin-MLL FL inh |
| --- | --- | --- | --- | --- | --- | --- | --- |
| CCC(=NC)C1=C(O)CC(c2ccccc2)CC1=O (stereo not given) | 15% | -5 | -1.0% | 0%[15.4 µM] | -11% | ? | 2.2 |
| O=C1NC[C@@H](c2ccccc2)OC(=O)[C@@H](Cc2ccc(F)cc2)CC/C=C/C[C@@H]1CC(=O)N(CCO)Cc1ccccc1 | . | -20 | 0.9% | -5% | -26% | . | . |
| Cc1ccccc1CNC(=O)c1ccccc1N(C)S(=O)(=O)c1ccccc1 | 13% | -5 | -8.4% | -28%[15.4 µM] | -3% | 5 | 0.1 |
| O=C(NCc1ccco1)C(=O)NCC(c1ccco1)N1CCOCC1 (stereo not given) | 5% | -1 | 2.7% | -1% | -1% | ? | 2.3 |
| Cn1cccc1-c1nc2ccc(NC(=O)c3ccc([N+](=O)[O-])cc3)cc2[nH]1 | 12% | -24 | 0.6% | -56%[inhibitor] | -13% | ? | 1.7 |
| Cc1ccc(CC(=O)Nc2ccccc2-c2ccccc2)cc1C | -7% | -5 | 4.9% | 20% | -26% | -20 | -1.0 |
| CC(C)CCNC(=O)C1CC(c2cccc(F)c2)=NO1 (stereo not given) | 6% | -7 | 1.9% | . | -1% | -14 | 2.1 |
| COc1ccc(N2CC(C(=O)Nc3nnc(SCCC4OCCO4)s3)CC2=O)cc1 (stereo not given) | ? | 5 | -0.1% | -4% | -11% | 2 | . |
| O=C(Nc1nc2ccc(F)cc2s1)C1CC(=O)N(c2ccc3c(c2)OCCO3)C1 (stereo not given) | . | -2 | 0.3% | 20% | -13% | 2 | . |
| CC(C)OCCCNC(=O)CN1C(=O)CSc2ccc(S(=O)(=O)N3CCCCC3)cc21 | 15% | -6 | 0.4%&-2.0% | -17% | 11% | 1 | -3.8 |
| CC(/C=C/c1ccc2c(c1)OCO2)=N/NC(=O)c1cccnc1 | 22% | -1 | . | -2%[15.4 µM] | -13% | 3 | 2.1 |
| Cc1cc(OCC(=O)NC(C)C)cc(C)c1Cl | 7% | -8 | 0.3% | -2% | 13% | -22 | 0.4 |
| N/C(=N/OC(=O)c1ccccc1Cl)c1ncc([N+](=O)[O-])s1 | -3% | 18 | . | 25%[15.4 µM] | -13% | -10 | 2.9 |
| Cc1cc(C)c(S(=O)(=O)Nc2ccncc2)cc1C | 1% | -3 | . | -14% | 6% | -2 | -2.8 |
| CC(C)C(O)C1CCN(Cc2nc(Cc3ccccc3Cl)no2)CC1 (stereo not given) | 0% | -10 | -2.5% | -106%[inhibitor] | -3% | 3 | -6.7 |
| O=C(NC1CCCC1)C(c1c[nH]c2ccccc12)N(C(=O)Cn1nnc(-c2ccc(Cl)cc2)n1)c1ccccc1 (stereo not given) | 9% | -11 | -2.3% | -35%[inhibitor] | -5% | -5 | -0.2 |
| O=C(COc1cccnc1[N+](=O)[O-])NCc1ccco1 | 17% | -6 | . | -5%[15.4 µM] | 12% | -17 | -0.9 |
| COc1ccc(-c2nc3ccccc3s2)cc1 | 5% | -1 | 4.4% | 12% | -6% | -2 | -1.5 |
| COc1c(C)cc(C(=O)C2CCCN(Cc3cccc4nccnc34)C2)cc1C (stereo not given) | -10% | -20 | 1.6% | 10% | 19% | 13 | -1.1 |
| COCc1nnc(NC(=O)C2CC(=O)N(c3ccc(C)c(Cl)c3)C2)s1 (stereo not given) | . | -5 | -17% | -4% | -7% | -10 | . |

Continuation:
| SMILES | Sfp inh | D2 potentiator | ClpP mod | gsp ag | gsp antag | TRPV1 PAM | Menin-MLL FL inh |
| --- | --- | --- | --- | --- | --- | --- | --- |
| O=C(c1cc2cc([N+](=O)[O-])ccc2s1)N1CCOCC1 | 14% | -14 | 1.3% | -22% | 2% | -12 | -7.6 |
| O=S(=O)(c1cc(Cl)ccc1Br)N1CCCCC1 | 2% | -1 | -0.3% | 2% | -22% | -2 | -1.7 |
| COCCCN(Cc1ccco1)C(=O)Cn1ncc2c([nH]c3ccccc32)c1=O | 17% | ? | 4.0% | -41%[inhibitor] | -13% | 9 | 0.1 |
| COc1ccc(C(=O)NC(C)Cc2cnccn2)cc1OC1CCN(C(C)C)CC1 (stereo not given) | 10% | 0 | -0.7% | -20% | 8% | -1 | . |
| O=C1CCCC2=C1C(c1cccs1)CC(=O)N2c1ccc(F)cc1 (stereo not given) | 11% | -7 | -0.7% | 17% | 4% | 14 | 1.4 |
| COc1ccc(/C(C)=N\n2cnnc2)cc1 | 12% | -4 | 1.8% | -27% | 16% | 3 | 0.4 |
| O=C(Nc1ccnn1C1CCN(Cc2c(F)cccc2Cl)CC1)C1CCCC1 | 4% | -12 | -0.3% | -26% | 2% | -14 | . |
| O=C1CSC(c2cccc(F)c2)N1c1ccccc1 (stereo not given) | 15% | 22 | 0.7% | 31% | 6% | 3 | 1.0 |
| C=C(C)C(=O)Nc1cccc(C(C)=O)c1 | 0% | -1 | -1.8% | -2%[15.4 µM] | -4% | -6 | 0.2 |
| Cc1ccc(OCCOc2ccc(S(=O)(=O)N3CCCC3)cc2C(N)=O)cc1 | . | -9 | -0.2% | -1% | -6% | -7 | . |
| CCN(CC)S(=O)(=O)c1ccc(S(=O)(=O)N2CCC(N3CCCCC3)CC2)cc1 | 7% | 5 | . | -1%[15.4 µM] | 5% | -5 | 5.8 |
| CCOC(=O)C1=C(N)OC2=C(C(=O)CC(C)(C)C2)C1c1ccoc1 (stereo not given) | 1% | 3 | 0.9% | 2% | 4% | 6 | 3.7 |
| Cc1ccc(C(=O)Nc2cccc(C(=O)N3CCOCC3)c2)cc1Cl | 10% | -14 | 3.5% | -38%[inhibitor] | -14% | -23 | -0.3 |
| Cc1ccnc2c(N3C(=O)C4C5C=CC(C5)C4C3=O)cccc12 (stereo not given) | -12% | -32 | -0.1% | -2% | 8% | -3 | 2.2 |
| CCOc1ccc(-c2c(C)sc3nc[nH]c(=O)c23)cc1 | 13% | 12 | -0.4% | 13%[15.4 µM] | -8% | 7 | 2.3 |
| Cc1ccc(C(=O)NCC(=O)N2CCCCCC2)cc1 | 7% | 0 | . | 0% | 6% | -15 | 1.9 |
| N#Cc1ccsc1NC(=O)C1=COCCO1 | . | 2 | 0.3% | 29% | 3% | 11 | . |
| Cc1ccc(Nc2n[nH]c(=S)s2)cc1 | . | -21 | 0.1% | ? | . | . | . |
| C/C(CC(=O)Nc1cc(Cl)ccc1C)=N\NC(N)=O | -5% | -3 | . | -15%[15.4 µM] | 0% | . | 5.4 |
| CCCCN(C(=O)c1ccc(N(C)S(=O)(=O)c2ccc(C)cc2)cc1)c1c(N)n(CCC)c(=O)[nH]c1=O | 18% | -12 | -0.7% | -8%[15.4 µM] | -4% | 1 | . |
| Cc1ccc2c(c1)N(CC(=O)NCCCN1CC(C)CC(C)C1)C(=O)c1cccnc1O2 (stereo not given) | 9% | -11 | 0.7% | -17% | 0% | ? | 0.2 |
